Compound activity: PubChem BioAssay, National Center for Advancing Translational Sciences (NCATS)
Vaccinia Venus = qHTS for Stage-Specific Inhibitors of Vaccinia Orthopoxvirus: Venus Reporter Primary qHTS; Potency, µM (top dose mostly 36.5 µM), for the others: at the top dose activity change, negative = inhibition, most hits filed as inhibitors; AID 720580, 2013; Vaccinia virus Venus reporter expression, fluorescence; 330,000 tested, 0.46% active; active means well fitted inhibition curve with a large enough effect; inconclusive means small, poorly fitted or top-dose-only effect; inactive means no such curve, though single readings can be large or run the other way; tested in A549 cells; further: nearly all actives have a fitted effect of over 30% in size; inactives centre near -10
Vaccinia mCherry = qHTS for Stage-Specific Inhibitors of Vaccinia Orthopoxvirus: mCherry Reporter Primary qHTS; Potency, µM (series often up to 36.5 µM), for inactives: at the highest dose activity change, negative = inhibition, most hits filed as inhibitors; AID 720579, 2013; Vaccinia virus mCherry reporter infection, fluorescence; about a quarter of the inactives have no number; 310,000 tested, 0.63% active; active = well fitted inhibition curve with a large enough effect; inconclusive = small, poorly fitted or top-dose-only effect; inactive = no such curve, though single readings can be large or run the other way; tested in A549 cells; further: nearly all actives have a fitted effect of over 35% in size; inactives centre near -10
Numbers without * were called inactive; i = inactive; ? = inconclusive; nt = no result given; [ ] = remark or other dose. On the % scale 0 is the no-effect control and ±100 the full control effect; potency means the concentration at half of the fitted maximal effect. The order is random; about 0.82% have a hit in one of these screens.

molecule	Vaccinia Venus	Vaccinia mCherry
COc1ccccc1C(=O)N1CCN(c2cccc(Cl)c2)CC1	?	-19%
COc1ccc(N2CCN(S(=O)(=O)c3c(C)[nH]c(C)c3C(=O)N3CCCCC3)CC2)cc1	-13%	-4%
N#Cc1ccc(OCC(=O)NCCc2ccc(S(N)(=O)=O)cc2)cc1	-8%	nt
N#Cc1c(SCC(=O)O)nc(N2CCOCC2)c2c1CCCC2	-8%	-5%
COc1ccccc1N/N=C1\COC(C)(C)CC1=O	-11%	?
S=P(c1ccc(N2CCOCC2)cc1N1CCOCC1)(N1CCOCC1)N1CCOCC1	1%	nt
COc1ccc(/C=C/C(=O)N(C)C2CCS(=O)(=O)C2)cc1 (stereo not given)	-5%	-11%
CC1=NN(c2ccccc2)C(=O)/C1=C\c1cn(C)c2ccccc12	-11%	-12%
CCCn1c(SCC(=O)Nc2ccc(Cl)cn2)nnc1C1CC1	-15%	i
CCCN1C(=O)C2(c3ccccc31)c1c(oc3ccccc3c1=O)C(=O)N2CCO (stereo not given)	-2%	-8%

(more compounds)
molecule	Vaccinia Venus	Vaccinia mCherry
COCCNC(=O)c1ccc(S(=O)(=O)N2CCCc3ccccc32)cc1	-8%	8%
CC(=O)c1c(C)[nH]c(C(=O)Nc2ccc(C)c(S(=O)(=O)Nc3ccc(C)cc3C)c2)c1C	-9%	-5%
COc1ccc(NC(=O)C2CCN(C(=O)c3cccs3)CC2)cc1OC	?	i
COc1ccc(NC(=O)c2csnn2)cc1	2%	-2%
CC(=O)c1c(C)[nH]c(C(=O)OCC(=O)Nc2ccc(Cl)cc2[N+](=O)[O-])c1C	-15%	-25%
COc1cccc(C(=O)/C=C/Nc2ccc(S(=O)(=O)Nc3ccc(C(C)=O)cc3)cc2)c1	?	?
CCc1c(C)nc2nc(-c3ccccc3)nn2c1NCc1ccc(C)cc1	?	?
CSc1ccccc1C(=O)NC1CC2CCC1C2 (stereo not given)	11%	nt
Cc1ccc(CCNC(=O)C2CCN(C(=O)c3sccc3-n3cccc3)CC2)cc1	-22%	-9%
CN(C)c1ncnc2c1ncn2C1OC(CO)C(O)C1O (stereo not given)	10µM*	13µM*

(further entries)
molecule	Vaccinia Venus	Vaccinia mCherry
COc1ccc2[nH]c(=O)c(CNc3ccccc3C)cc2c1	-7%	i
COc1ccccc1NC(=O)C1=C(C)Nc2c(C(=O)Nc3ccc(F)cc3)cnn2C1c1cccc([N+](=O)[O-])c1 (stereo not given)	-18%	i
Brc1ccc(-c2nnc3sc(CN4CCCCC4)cn23)cc1	-8%	2%
O=C(NCC(c1cccs1)N1CCOCC1)c1cn(-c2ccccc2)nc1-c1ccc(F)cc1 (stereo not given)	-8%	-5%
CC1CC(=O)c2cnc(NCC3CCCO3)nc2C1 (stereo not given)	3%	nt
COc1ccccc1N1CCN(S(=O)(=O)CCNC(=O)c2cccs2)CC1	-24%	-16%
COc1cccc(N2C(=O)C(CC(=O)Nc3ccc(F)cc3)N(C3CCCCC3)C2=O)c1 (stereo not given)	-16%	nt
CCc1noc(C)c1C(=O)OCC(=O)Nc1ccccc1SC	-5%	i
Cc1ccc(C(NC(=O)N2CC(C)OC(C)C2)C(Cl)Cl)cc1F (stereo not given)	-5%	-17%
CC1=C(C(=O)NCc2cccc(Br)c2)C2(CCCCC2)OC1=O	-5%	-10%

Following part:
molecule	Vaccinia Venus	Vaccinia mCherry
O=C(Nc1nnc(-c2ccc(F)cc2)o1)c1ccco1	-3%	i
COc1cccc(C(=O)Nc2ccccc2-c2nc3ccccc3s2)c1	-26%	?
COCCN1CCN(c2c(C)c(C)nc3cc(-c4cccc(OC)c4)nn23)CC1	-20%	-4%
CCOc1nc(SCCOc2ccccc2)nc(N(C)C)n1	-23%	-16%
CCOC(=O)C1=C(C)N=c2s/c(=C\c3cccn3C)c(=O)n2C1c1cccc(OC)c1OC (stereo not given)	1%	nt
Cc1ccc(/C=C2\C(=O)NC(=O)N(CCc3ccc(F)cc3)C2=O)s1	0%	-7%
CCCOc1ccc(C(=O)OCC(=O)NCCc2ccc(OCC)c(OCC)c2)cc1OC	-18%	-9%
CCOC(=O)COc1ccc(Cl)cc1C1NC(=O)NC(C)=C1C(C)=O (stereo not given)	-19%	nt
CCCCN=C1NN=C(c2cccc([N+](=O)[O-])c2)CS1	-6%	-29%
CCc1cc2c(SCC(=O)NC3CCS(=O)(=O)C3)ncnc2s1 (stereo not given)	-5%	-7%

No new results follow: an excerpt of the list.
molecule	Vaccinia Venus	Vaccinia mCherry
O=C(Nc1nnc(-c2ccc(F)cc2)o1)c1ccco1	-3%	i
COc1cccc(C(=O)Nc2ccccc2-c2nc3ccccc3s2)c1	-26%	?
COCCN1CCN(c2c(C)c(C)nc3cc(-c4cccc(OC)c4)nn23)CC1	-20%	-4%
CCOc1nc(SCCOc2ccccc2)nc(N(C)C)n1	-23%	-16%
CCOC(=O)C1=C(C)N=c2s/c(=C\c3cccn3C)c(=O)n2C1c1cccc(OC)c1OC (stereo not given)	1%	nt
Cc1ccc(/C=C2\C(=O)NC(=O)N(CCc3ccc(F)cc3)C2=O)s1	0%	-7%

Remaining list, next part
Fields: Vaccinia Venus, Vaccinia mCherry
- CC1CCN(C(=O)CSc2nnc(NC(=O)Nc3ccccc3)s2)CC1
  -10%[7.34 µM], -10%[7.34 µM]
- CC(C)CNC(=O)c1cccc(NC(=O)CSc2ccccc2)c1
  -11%, -11%
- COc1cc(C(=O)NC(C)C2CC3CCC2C3)ccc1OC(F)F (stereo not given)
  -21%, -6%
- Cc1ccc(NC(=O)CSc2ccc(-c3sc(-c4ccccc4)nc3C)nn2)cc1F
  -12%, -21%
- CC(=O)c1cc(C(=O)N2CCCC(CCC(=O)N(C)CCc3ccccn3)C2)cs1 (stereo not given)
  -3%, -29%
- CCn1cc(-c2cc(C(=O)O)on2)c(C)n1
  -5%, i
- CCCCNC(=O)c1onc(CSc2cccc(OC)c2)c1C(=O)O
  -7%, i
- CC(C)CC(=O)Nc1ccc2c(c1)oc1ccccc12
  ?, -12%
- COc1cc(C(=O)NCc2ccc(F)cc2)cc(Cl)c1OC
  9%, -5%
- O=C(Nc1ccc2c(c1)OCO2)C1CCN(c2ccc(S(=O)(=O)N3CCOCC3)cc2)CC1
  -11%, i
- Cc1cccc(CS(=O)(=O)Cc2ccc(C(=O)NC(C)c3ccccc3)o2)c1 (stereo not given)
  -5%, -5%
- O=C(CCCCCn1c(=S)[nH]c2ccc(N3CCOCC3)cc2c1=O)NCc1ccc2c(c1)OCO2
  -7%, i
- COc1ccc(-c2nc3cnccn3c2Nc2ccc3c(c2)OCO3)cc1
  ?, -29%
- COc1cc2c(cc1OC)C(=Cc1ccc(N(C)C)cc1)C=C2
  -5%, ?
- Cc1ccc(Cl)cc1NC(=O)Cn1nc(-c2cccs2)ccc1=O
  11%, ?

Look-ups from above.
CC(C)CC(=O)Nc1ccc2c(c1)oc1ccccc12 in Vaccinia mCherry: -12%
COc1cc2c(cc1OC)C(=Cc1ccc(N(C)C)cc1)C=C2 in Vaccinia Venus: -5%

(next part)
Fields: Vaccinia Venus, Vaccinia mCherry
- O=C(O)c1cccc(Sc2ccc(Br)cc2C(=O)O)c1
  -18%, i
- O=C(O)C1C2C=CC3(O2)C1C(=O)N1c2ccccc2COC13 (stereo not given)
  0%, nt
- COc1ccc(C(=O)c2ccccc2C(=O)c2ccccc2)cc1
  -5%, -1%
- COc1ccc(C2(C)NC(=O)N(CC(=O)NCCC3=CCCCC3)C2=O)cc1OC (stereo not given)
  -15%, nt
- C[C@@H]1NC(=O)c2cc([N+](=O)[O-])cc(I)c2OCC[C@@H](C(=O)NC(CC(=O)O)C(N)=O)NC(=O)[C@H](CC(N)=O)NC1=O (stereo not given in full)
  -12%, i
- C[C@H](CO)N1C[C@H](C)[C@@H](CN(C)C(=O)Nc2ccc(C(F)(F)F)cc2)Oc2c(cccc2N(C)C)C1=O
  ?, -3%
- C=CCNC(=O)c1c(N)n(Cc2ccco2)c2nc3ccccc3nc12
  8%, -18%
- COc1ccc(S(=O)(=O)Nc2ccc(F)c(F)c2)cc1Cl
  -15%, ?
- CCN(CC(=O)NCc1ccc(F)cc1)C(=O)/C=C/c1ccc(OC)cc1
  -7%, i
- C/C=C/C(=O)OCC(=O)Nc1cc([N+](=O)[O-])ccc1Cl
  ?, 11µM*
- Cc1ccc(S(=O)(=O)N2CCN(C(=O)N3CCOCC3)CC2)cc1C
  -4%, -17%
- O=C(O)CCCCCNS(=O)(=O)c1cccc2c1C(=O)c1ccccc1C2=O
  5µM*, 4.5µM*
- CCN1CCN(C(c2ccc(C(F)(F)F)cc2)c2ccc3cccnc3c2O)CC1 (stereo not given)
  ?, ?
- CC[C@H](C)[C@H](NC(N)=O)C(=O)Nc1ccc2c(c1)OCO2
  -1%, -2%
- Cc1ccc(NC(=O)c2cnc(SCC(=O)N3CCOCC3)n(C)c2=O)cc1
  -5%, -12%

New compounds follow
Fields: Vaccinia Venus, Vaccinia mCherry
- Cc1ccccc1OCC(=O)Nc1ccc(S(=O)(=O)N(Cc2ccccc2)c2ccccc2)cc1
  -8%, -18%
- Cc1ccc(OCCSc2nc3ccc(NC(=O)COc4ccc(C)cc4)cc3s2)cc1
  ?, ?
- COc1ccc2c(c1)C1NC(=S)N[C@@](C)(O2)C1C(=O)Nc1ccccc1 (stereo not given in full)
  -11%, -20%
- Cc1ccc2[nH]c(=O)c(CN(C)C(=O)c3cccs3)cc2c1
  -9%, 0%
- COCCNc1ncnc2c1c(-c1ccccc1)cn2-c1cccc(Cl)c1
  -12%, i
- Cc1cccc(NC(=O)c2ccc(-n3cccn3)c([N+](=O)[O-])c2)c1
  -11%, -15%[1.46 µM]
- CCn1cc(C(=O)OCC(=O)N(C)Cc2ccccc2)c(=O)c2ccc(C)nc21
  -8%, -18%
- Cc1csc(NC(=O)c2cc(C)nc3ccccc23)n1
  -4%, i
- CCOC(=O)N1CCN(C(=O)COC(=O)c2cc(Cl)c(O)c(Cl)c2)CC1
  -1%, i
- O=C(NC(=S)Nc1ccccc1)c1ccc(Br)o1
  -15%, 0%
- CC(=O)Oc1ccc2occ(C(=O)c3ccccc3)c2c1
  0%, -12%
- CC(C)CNC(=S)NC(=O)c1ccc([N+](=O)[O-])cc1
  -16%, nt
- CC(=O)Nc1ccc(S(=O)(=O)N2CCN(C(=O)N3CCOCC3)CC2)cc1
  -14%, nt
- Cc1coc2c(C)c3oc(=O)c(CCC(=O)NCCC(=O)O)c(C)c3cc12
  -8%, i
- Nc1nc(SCc2ccccc2)c2ncn(C3OC(CO)C(O)C3O)c2n1 (stereo not given)
  -4%, -15%

(more compounds)
Fields: Vaccinia Venus, Vaccinia mCherry
- COc1ccc(Nc2nc3c(C)cccc3cc2C#N)cc1
  -12%, -10%
- COc1cc(-c2cnc3ccccc3c2)cc2c1OCCN(S(=O)(=O)C[C@]13CC[C@H](CC1=O)C3(C)C)C2
  4%, -11%
- COc1ccc(NC(=O)c2sc(SCc3ccccc3)nc2N)cc1
  -10%, i
- NC(Cc1ccc(F)cc1)c1csc(Nc2ncccn2)n1 (stereo not given)
  7.9µM*, 7.1µM*
- Cc1cc2nccnc2cc1C
  -3%, -4%
- CC1(NC(=O)Cn2cc(C(F)(F)F)ccc2=O)CCS(=O)(=O)C1 (stereo not given)
  -10%, -1%
- Cc1cccc2sc(N(CCN(C)C)C(=O)C3CCN(S(=O)(=O)c4cccs4)CC3)nc12
  -19%, -7%
- CCN(C(=O)c1cc2c(=O)oc3ccccc3c2s1)c1ccccc1F
  -7%, -9%
- C=CC[n+]1c(-c2ccccc2)csc1NC(C)(C)C
  4%, ?
- Cn1c(O)c(C=Nc2ccc3c(c2)CCC3)c(=O)n(C)c1=O
  -5%, -1%
- CC1(C)Cc2c(cnn2-c2ccc(F)cc2)C(NC(=O)CCN2CCCC2=O)C1 (stereo not given)
  0%[7.34 µM], i[7.34 µM]
- CCNC(=O)N1C(=O)C2(OCCO2)c2ccccc21
  -2%, nt
- CCN(CC)S(=O)(=O)c1ccc(C(=O)NCCSc2c(-c3ccc(C)cc3)[nH]c3ccccc23)cc1
  -15%, -13%
- COC(=O)c1ccccc1NC(=O)C1=CC(c2ccc(C)cc2)=NS(=O)(=O)N1C
  -10%, -1%
- O=C(CSc1nc(=O)n2ccccc2n1)N1N=C(c2cccs2)CC1c1ccc(F)cc1 (stereo not given)
  -23%, -4%

Next entries
Fields: Vaccinia Venus, Vaccinia mCherry
- NC(=O)c1ccsc1NC(=O)COC(=O)/C=C/c1ccc([N+](=O)[O-])cc1
  -1%, i
- CC(=O)Nc1nc(C)c(Oc2cccc(C(F)(F)F)c2)c(=O)[nH]1
  -8%[7.34 µM], i[7.34 µM]
- N#C/C(=C/c1ccc(O)c(O)c1)C(=O)NCc1ccc(Cl)cc1
  -17%, ?
- CCCC[C@@H]1CN=C(N)N1CCc1cccc(F)c1
  -12%, i
- COc1ccccc1CN1CCCCCC1
  -15%, i
- COc1ccc2c(c1)CC/C(=C/c1cc(OC)c(OC)c(OC)c1)C2=O
  ?, -24%
- Cc1nn2c(=O)cc(COC(=O)c3ccc(NC(=O)c4ccc(C(C)(C)C)cc4)cc3)nc2s1
  -20%, -7%
- COc1ccc2cc(C(=O)N3CCCC(Nc4ccc(F)cc4)C3)n(C)c2c1 (stereo not given)
  -16%, -18%
- COc1ccccc1C1NC(=O)NC(C)=C1C(=O)OCc1ccccc1 (stereo not given)
  -15%, -16%
- COC1CCCN(Cc2cn(C)nc2-c2ccc(Oc3ccccc3)cc2)C1 (stereo not given)
  -20%, ?
- C=CCN(CC=C)Cc1cc(=O)oc2ccccc12
  3%, i
- CC12CCC(O)CC1=CCC1C2CCC2(C)C(c3ccn[nH]3)CCC12 (stereo not given)
  8%, -4%
